# Assay outcomes deposited in PubChem BioAssay by National Center for Advancing Translational Sciences (NCATS).
# D2 PAM: positive allosteric modulators of human D2 dopamine receptor; P14416; DiscoveRx D2 beta-arrestin cells, luminescence, 90 min; 100% = 57 uM dopamine signal; potentiation, % (no concentration beside the values); 360,000 tested, 0.23% active; active = potentiation of 50% or more; inconclusive = 30% to 50%; inactive = 30% or less;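 further: compound concentration not given in the record; tested on top of an EC20 dose of dopamine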
# Target sequence (P14416 whole entry, looked up): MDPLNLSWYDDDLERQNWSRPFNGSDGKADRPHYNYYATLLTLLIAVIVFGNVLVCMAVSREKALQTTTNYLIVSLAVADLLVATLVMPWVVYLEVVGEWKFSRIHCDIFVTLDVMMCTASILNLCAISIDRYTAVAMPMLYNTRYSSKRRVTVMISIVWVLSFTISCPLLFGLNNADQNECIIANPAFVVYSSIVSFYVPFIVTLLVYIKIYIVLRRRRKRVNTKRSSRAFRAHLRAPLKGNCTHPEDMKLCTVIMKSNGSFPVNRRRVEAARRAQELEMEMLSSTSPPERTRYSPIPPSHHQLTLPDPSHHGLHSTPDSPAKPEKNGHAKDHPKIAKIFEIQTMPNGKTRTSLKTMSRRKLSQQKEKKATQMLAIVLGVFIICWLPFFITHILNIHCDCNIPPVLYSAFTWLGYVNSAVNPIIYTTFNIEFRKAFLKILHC
#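 PathHunter D2 cells, attached overnight at 37 deg C, received compound in DMSO plus dopamine at EC20 (50 nM final) for 90 min at 37 deg C. Beta-arrestin recruitment was read as luminescence after 1 h with detection reagent at ambient temperature.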
# CtBP-E1A inh: blocks the CtBP interaction with E1A. AlphaScreen GST-E1A/His-CtBP binding, 1536-well; stronger effect = lower value; control for the full effect not named in the record. activity change, % (concentration not given with the values). 340,000 tested, 0.49% active. AID 651724; in the data active means activity change below about -65%; inconclusive means about -30% to -65%; inactive means above about -30%; further: on the % scale 0 is the no-effect control and ±100 the full control effect
#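 AlphaScreen with 125 nM GST-E1A and 125 nM His-CtBP (5X stocks) in Tris pH 8.0, 300 mM NaCl, BSA, Tween 20, TCEP. Compounds preincubated 2 h at 37 deg C, then glutathione donor/nickel acceptor beads added for 1 h at 37 deg C in dark.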
# gsp agonist: gsp mutant agonism; 340,000 tested, 0.13% active; Potency, µM (doses to about 76.9 µM), for the others: at the top dose activation (cAMP increase), hits mostly activators; AID 624287; gsp mutant cells, cAMP HTRF, 30 min; control for the full effect not named in the record; active = well fitted activation curve with a large enough effect; inconclusive = small, poorly fitted or top-dose-only effect, or another doubt; inactive = no such curve, though single readings can be large or run the other way; cell line not stated here;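 further: phosphodiesterase inhibitor Ro 20-1724 added with compounds to block cAMP breakdown; potency means the concentration at half of the fitted maximal effect; nearly all actives have a fitted effect of over 60% in size; about a fifth of the inactives were tested at one dose only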
#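 Cells in DMEM/10% FBS with G418 were pretreated with compounds in DMSO plus […] (300 uM stock) for 30 min at 37C. cAMP was measured by HTRF (cAMP-d2 plus anti-cAMP antibody-K) after 30 min at room temperature.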
# gsp antagonist: antagonists of gsp mutant (McCune-Albright syndrome). AID 624288. gsp-mutant cells, cAMP HTRF, 30 min; control for the full effect not named in the record. 340,000 tested, 0.4% active. Potency, µM (top dose mostly 76.9 µM), inactives show top-dose activity change, negative = inhibition, actives largely listed as inhibitors; active = falling curve of any shape with a large fitted effect; inconclusive = falling curve, mostly with a smaller effect; inactive = flat or rising curve; cell line not stated here;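 further: intracellular cAMP measured with PDE inhibitor Ro 20-1724 present during compound exposure; potency means the concentration at half of the fitted maximal effect; on the % scale 0 is the no-effect control and ±100 the full control effect; nearly all actives have a fitted effect of over 65% in size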
#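 Cells in G418 medium, seeded 16-24 h, 37C; buffer exchange to DPBS + 1 mM CaCl2, 0.5 mM MgCl2, 0.05% BSA; cpds in DMSO + […] (300 uM stock), 30 min 37C; HTRF cAMP detection.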
# Six1-Eya2 blk: Six1/Eya2 interaction inhibition. activity change, % (test concentration not listed). Q15475+O00167. 360,000 tested, 0.56% active. AlphaScreen GST-Six1/His-Eya2 binding, biochemical; stronger effect = lower value; control for the full effect not named in the record; in the data active = activity change below about -65%; inconclusive = about -30% to -65%; inactive = above about -30%; further: on the % scale 0 is the no-effect control and ±100 the full control effect; compound concentration not given in the record
#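 AlphaScreen with GST-Six1 and His-Eya2 (5X mix: 250 nM and 500 nM), glutathione donor and nickel acceptor beads; buffer 50 mM Tris pH 8.0, 300 mM NaCl, 1 mM TCEP; 1 h at 37 C in the dark.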
# D2 agonist: activates the human D2 dopamine receptor; P14416; DiscoveRx PathHunter D2 beta-arrestin, luminescence, 90 min; 100% = 57 uM dopamine signal; activation, % (concentration not given with the values); 360,000 tested, 0.084% active; in the data active = activation above about 40%; inconclusive = about 15% to 40%; inactive = below about 15%; further: compound concentration not given in the record; the text of the record calls up to 30% inactive
#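 DiscoveRx PathHunter D2 beta-arrestin cells (2,100/well) attached overnight, then compound-stimulated 90 min at 37 C in HBSS/10 mM HEPES/0.1% Tween-20 buffer; beta-galactosidase complementation read by luminescence after 1 h at ambient temperature. Dopamine 57 uM final (EC100) as control.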
# An asterisk follows results filed as active; ? = inconclusive; / = no result given; & = joins results of further samples; [ ] = dose if it differs, or a comment.
SMILES,D2 PAM,CtBP-E1A inh,gsp agonist,gsp antagonist,Six1-Eya2 blk,D2 agonist
CCCCn1nnnc1SCC(=O)NCc1ccccc1,-14,5,-2%,-4%,3,-3.3
Cc1cc(C)c2[nH]c(=O)c(CN(CC3CCCO3)C(=O)C3CCCO3)cc2c1 (stereo not drawn),-11,-1,-21%,38%[activator],6,0.5
C[C@@H]1NC(=O)[C@H](CCC(N)=O)NC(=O)c2cc([N+](=O)[O-])cc(I)c2NCCC[C@@H](C(N)=O)NC1=O,-62,-2,/,12%,9,-0.4
COc1cc(NC(=O)C2CCCN(S(=O)(=O)c3ccc4[nH]c(=O)ccc4c3)C2)cc(OC)c1 (stereo not drawn),-12,-22,3%,10%,-13,-0.2
CC(C)CCn1c(=O)[nH]c2ccccc21,2,1,7%[15.4 µM],5%,8,-4.5
CC1(C)CC(=O)c2sc(NC(=O)C3CC3)nc2C1,-9,0,?,13%,2,-6.4
O=C(COC(=O)Cc1ccc(Cl)cc1)NCc1cccs1,5,/,?,6%,0,-0.5
Cc1cc(C)c(S(C)(=O)=O)c(N(C)N)n1,-3,1,-85%[inhibitor],-3%,2,-2.0
Cc1ccc(C)c(N2CCN(C(=O)C3CCN(S(=O)(=O)c4cccc5nsnc45)CC3)CC2)c1,-14,-9,22%,22µM*,-17,-2.7
CC(C)CNS(=O)(=O)c1cc(C(=O)O)c(Cl)cc1Cl,-3,15,25%,13%,3,1.6
CCC(=O)N1c2ccccc2NC2=C(C(=O)CCC2)C1c1cccnc1 (stereo not drawn),-7,6,24%,6%,5,-1.9
Cc1ccccc1NC(=O)C1CCCN1S(=O)(=O)c1ccccc1C(F)(F)F (stereo not drawn),11,6,6%,1%,7,2.5
O=C(/C=C\Nc1ccc(S(=O)(=O)Nc2ncccn2)cc1)c1cccc2ccccc12,-9,1,?,-16%,-3,-1.5
CC(C)CC(=O)Nc1ccc(-c2cn3ccsc3n2)cc1,0,-18,?,9%,-25,-17
COc1ccc(C)cc1S(=O)(=O)N(CC(=O)Nc1cccc([N+](=O)[O-])c1)c1ccc(C)c(C)c1,0,0,-27%,-13%,-9,-3.4
Cc1nnc(SCC(=O)NNC(=O)COc2ccc(Cl)cc2)s1,-22,0,-7%[15.4 µM],10%,0,-1.8
O=[N+]([O-])c1ccc(O)c(Nc2ncnc3ccc(Br)cc23)c1,-8,-1,0%,35µM*,-24,-0.3
O=C(CSc1ncnc2c1cnn2-c1ccccc1)Nc1ccc2c(c1)OCO2,-2,0,-38%[inhibitor],-10%,16,-3.6
COCc1c(Br)c(C)[nH]c(=O)c1C#N,3,2,20%,1%,8,-0.1
Cc1ccnc(SCCn2c(N3CCN(c4ccccc4)CC3)nc3c2c(=O)[nH]c(=O)n3C)n1,?,-3,-2%,-13%,4,-0.5
CCOC(=O)CN(C(=O)CSc1nnc2c(n1)[nH]c1ccc(F)cc12)c1ccccc1,-25,-70*,-7%,-8%,-66*,-3.7
COc1ccc(Cl)cc1CN1C(=O)NC2(CCCCCC2)C1=O,-6,-1,-7%,2%,10,-3.7
CSc1nc(C)cc(Oc2ccc(=O)n(C)n2)n1,-6,-2,15%,9%,2,-3.8
COc1ccc(-c2cn[nH]c2N)cc1,7,7,-16%,4%,-2,-4.1
Cc1noc(C)c1COc1cccc(C(=O)Nc2ccccc2)c1,1,/,-21%,-4%,-2,-2.5
CCOC(=O)C1=C(COC(=O)C2(C)CC2(Cl)Cl)NC(=O)NC1c1ccccc1 (stereo not drawn),-1,14,-2%,7%,-2,-6.2
CC(=O)c1ccc(-c2cnc3c(NC=O)cc(-c4cnn(C)c4)cn23)cc1,5,-12,/,/,-14,4.1
Cc1cs/c(=N\N=C\c2ccccc2)n1Cc1ccco1,2,?,8%,?,?,-1.4
CC(=O)Nc1sc(/C(C#N)=C\c2cccc(Cl)c2)nc1-c1ccc(C)cc1,6,-12,?,10%,3,0.4
CCS(=O)(=O)NCC(c1cccnc1)N1CCN(c2ccc(OC)cc2)CC1 (stereo not drawn),-1,-75*,1%,-7%,1,-2.3
CN1CCN(C(=O)c2cnn(-c3ccccc3)c2NC(=O)c2cccs2)CC1,-13,4,2%,1%,4,-2.8
CC(=O)Nc1ccc(NC(=O)Nc2cccc3ccccc23)cc1,-9,-5,7%,7%,-5,5.1
CC(=O)/C(=N\Nc1ccccc1Cl)Sc1cccc2cccnc12,-15,-92*,-2%[15.4 µM],-15%,-89*,-6.8
CCN(CC)C(=O)CSc1nnc(NC(=O)CCc2ccccc2)s1,-10,1,-26%,12%,3,0.9
C/C(N)=C(/C#N)C(=O)CSc1nnc(Nc2c(C)cccc2C)s1,-2&-17,-6&2,1%&-10%,-2%&-3%,-12&-5,5.4&-2.7
CCOc1cccc(C(=O)Nc2ccc3ccccc3c2)c1,-18,7,-29%,-26%,3,5.1
CN(CCc1ccccc1)C(=O)CCc1nnc(Cc2ccc3c(c2)OCO3)o1,-16,0,7%,-8%,0,0.0
Cc1c(C)n(CCO)c2ncnc(Nc3ccc(F)cc3)c12,3,5,23%,-6%,-6,8.0
COC(=O)C(Cc1ccccc1)NC(=O)CCCC(=O)NCc1cccc(OC)c1 (stereo not drawn),-20,/,-9%,-1%,-1,-2.8
CCCOC(=O)C1=C(C)NC(=O)NC1c1cccc2ccccc12 (stereo not drawn),-13,-23,12%,-9%,-4,-2.9

# 5 entries from above, ordered by length of the SMILES, lowest first.
SMILES,D2 PAM,CtBP-E1A inh,gsp agonist,gsp antagonist,Six1-Eya2 blk,D2 agonist
CCOc1cccc(C(=O)Nc2ccc3ccccc3c2)c1,-18,7,-29%,-26%,3,5.1
Cc1c(C)n(CCO)c2ncnc(Nc3ccc(F)cc3)c12,3,5,23%,-6%,-6,8.0
CCN(CC)C(=O)CSc1nnc(NC(=O)CCc2ccccc2)s1,-10,1,-26%,12%,3,0.9
C/C(N)=C(/C#N)C(=O)CSc1nnc(Nc2c(C)cccc2C)s1,-2&-17,-6&2,1%&-10%,-2%&-3%,-12&-5,5.4&-2.7
CN(CCc1ccccc1)C(=O)CCc1nnc(Cc2ccc3c(c2)OCO3)o1,-16,0,7%,-8%,0,0.0

# Next section:
SMILES,D2 PAM,CtBP-E1A inh,gsp agonist,gsp antagonist,Six1-Eya2 blk,D2 agonist
Cc1ccc(NC2CC(=O)N(c3cccc([N+](=O)[O-])c3)C2=O)cc1 (stereo not drawn),-8,7,-5%[15.4 µM],-5%,-23,-3.3
CN(/N=C/c1ccco1)C1=NS(=O)(=O)c2ccccc21,-1,?,?,4%,-19,3.4
O=C(NCC1CCOCC1)c1cc(COc2cccc(C(F)(F)F)c2)on1,-18,0,-1%,5%,4,-6.2
Cc1cc(C)c(C(=O)NC2CCCc3c2cnn3-c2ccc(C)c(C)c2)c(=O)[nH]1 (stereo not drawn),-12,-9,-41%[inhibitor],1%,12,-0.6
CCOc1c(Cl)cc(Cl)cc1CNCCNCCO,-16,0,11%,7%,0,-1.2
COc1cccc(NC(=O)CN(C)C(=O)CCCc2nc3ccccc3s2)c1,-17,5,-1%,-2%,-1,-3.9
COC(=O)C(NNc1ccc(F)cc1)(NC(=O)c1ccccc1)C(F)(F)F (stereo not drawn),10,0,-56%[inhibitor],2%,-10,-6.2
Cc1ccccc1NC(=S)N(CCN1CCOCC1)Cc1ccccc1F,0,0,-4%[15.4 µM],3%,3,3.3
CCOC(=O)C1(Cc2cccc(Cl)c2)CCCN(C(=O)c2ccc(COC)s2)C1 (stereo not drawn),-7,3,4%[15.4 µM],-14%,-4,-1.4
COc1cc(NC(=O)Cc2c(C(=O)O)n(C)c3ccccc23)cc(OC)c1OC,-4,-3,14%,0%,-13,5.0
COc1cccc(/C(O)=C2/C(=O)C(=O)N(CCCN3CCOCC3)C2c2ccncc2)c1 (stereo not drawn),-4,8,-1%,6%,3,-1.7
Cc1[nH]nc(SCC(=O)NC(C)c2ccccc2)c1[N+](=O)[O-] (stereo not drawn),-18,-15,-30%,-15%,6,-4.1
Cc1cc(NC(=O)c2nn3cccnc3c2Cl)no1,-7,-8,-29%,-7%,-6,-2.0
COc1ccc(C(=O)N2C(=S)NC(=O)/C2=C\c2ccc(C)cc2)cc1,-19,-8,6%,-30%,1,-2.0
CC(C)(C)c1ccc(OCC(=O)Nc2ccncc2)cc1,2,2,8%[15.4 µM],-1%,-12,1.9
CC(=O)c1ccc(OC(=O)CCc2nc3ccccc3s2)cc1,-4,-7,16%,5%,-12,-3.7
COC(=O)c1ccc(N2CCN(S(=O)(=O)c3ccc(C)cc3)CC2)c([N+](=O)[O-])c1,2,?,-28%,-25%,?,2.9
CC(C)N(CCCNC(=O)Cn1ncc2c([nH]c3ccccc32)c1=O)Cc1ccccc1,-20,4,?,10%,-1,5.8
Cc1ccc(NC(=O)CSc2nnnn2C2CC2)cc1S(=O)(=O)N1CCOCC1,-16,1,14%[15.4 µM],-4%,11,0.5
O=C(O)c1cccc(N2C(=O)C=CC2=O)c1,-12,0,-5%,/,?,-2.1
O=C(CCSCc1ccccc1Cl)N1CCN(c2cccc(Cl)c2)CC1,-3,3,13%,-25%,-6,-0.7
O=C(NNC(=S)NC1CC2C=CC1C2)c1ccncc1 (stereo not drawn),-18,0,-3%[15.4 µM],-10%,7,-5.2
COC(=O)c1cc(S(=O)(=O)N2c3ccccc3CC2C)cn1C (stereo not drawn),-1,4,-24%,7%,4,3.3
OCC1(Cc2ccccc2)CCN(Cc2cnc(-c3cccc4ccccc34)nc2)CC1,-15,0,9%,-1%,-12,0.9
CCN(Cc1ccccc1)C(=O)c1ccc(C)c(S(=O)(=O)N2CCCCC2)c1,-1,4,-3%,-11%,3,8.2
COc1ccc(OC(=O)N(C)C[C@H]2OCc3cn(nn3)CCCC(=O)N([C@H](C)CO)C[C@@H]2C)cc1,3,7,-56%[inhibitor],/,0,-9.8
COc1ccc(NC(=S)N2CCN(c3ncccn3)CC2)c(OC)c1,-7,2,1%,10%,11,-3.0
CC(C)[C@H](NC(=O)c1ccco1)C(=O)N(C)Cc1ccc(C(F)(F)F)cc1,-9,8,-13%,1%,-3,-1.1
c1ccc(CCNCCOc2ccccc2)cc1,-7,5,-2%[15.4 µM],10%,4,14
CCc1n[n+](CC(=O)c2ccccc2)c(N)s1,0,-11,-2%[15.4 µM],/,-1,-1.7
CCCCCN=Cc1c(C)[nH]n(-c2nc3ccccc3s2)c1=O,-10,-3,5%,-4%,-4,-3.0
COc1ccc(S(=O)(=O)Nc2ccc(F)cc2)c(C)c1C,5,2,-26%,?,0,-2.1
COc1ccc(OC(F)(F)F)cc1CC1(C)C(=O)Nc2ccc(S(=O)(=O)NC3CCCCC3)cc21 (stereo not drawn),-2,0,/,/,7,6.1
Nc1ccccc1C(=O)NCCN1CCNC1=O,-12,/,-16%,11%,4,-5.5
